Biofilm kill mix = mixtures killing C. albicans biofilm; C. albicans biofilm persisters + clotrimazole, fluorescence viability; primary screen in compound mixtures of four per well; inhibition, % at 7.6 µM; 120,000 compounds, 0.02% hits;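 active = inhibition above 30.3% in the primary screen of four-compound pools, then above 30% when the compound was retested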;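 note: compounds exposed to preformed 24 h biofilms for 48 h; the number belongs to the whole pool; some results filed as inactive read as strong as hits; inactives centre near 12; 0% = biofilm with clotrimazole alone and 100% = kill control; retested singly at about 60 µM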
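System: C. albicans CAF4-2 wild-type biofilms; Medium: RPMI/MOPS medium, pH 7.0; Reagent: Clotrimazole, 50 µg/mL; Times: biofilm formation 24 h, compound exposure 48 h, 37 °C; Detection: 2-h Alamar Blue fluorescence, 535/590 nm excitation/emission; Evaluation: percent inhibition of biofilm viability.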
* = called active by the depositor.

SMILES	Biofilm kill mix
Cc1ccccc1C(=O)OC(C)CN1CCOCC1 (configuration not stated)	-4
COC(C(=O)NNC(=O)Cc1ccc(Cl)cc1)c1ccccc1 (configuration not stated)	13
CCOCCCNCC(O)c1ccccc1 (configuration not stated)	7
CCOc1ccccc1C(=O)Nc1cnn(Cc2ccc(F)cc2)c1	14
O=C1NC[C@H](Cc2ccc(O)cc2)N(CC2CCCCC2)C1=O	9
CC(=O)n1cc(/C=N/NC(N)=S)c2ccccc21	13
O=[N+]([O-])c1ccc(C(=S)N2CCN(c3ccc(F)cc3)CC2)cc1	-4
CN(C)c1cccc(C(=O)OCC(=O)Nc2ccccc2-c2ccccc2)c1	18
O=C(COC(=O)c1cc(=O)[nH]c2ccccc12)Nc1nc(-c2cccc(Br)c2)cs1	5
Cn1c2c(c(=O)n(C)c1=O)C(c1ccccc1Cl)C(C#N)=C(N)O2 (configuration not stated)	5
COc1ccc2[nH]c(C(O)(Cc3cccnc3)Cc3cccnc3)cc2c1	11
CC1(C)CC(N(Cc2ccc(F)cc2)C(=O)c2ccc(F)cc2)CCO1 (configuration not stated)	20
O=C(CN1C(=O)C2C3CCC(C3)C2C1=O)N1CCN(Cc2ccccc2)CC1 (configuration not stated)	21
O=C1C(=Nc2cccc(Cl)c2)CC(c2ccc(Cl)cc2)N1c1cccc(Cl)c1 (configuration not stated)	16
O=C(C1=C[C@@H](C2CCCCC2)C[C@@H](OCCCCO)O1)N1CCOCC1	21
Cc1occc1-c1nnc(SCC(=O)N2CCCCC2)o1	14
N/C(COc1ncn(-c2ccccc2)n1)=N\S(=O)(=O)c1ccc(Cl)cc1Cl	20
CCOC(=O)c1ccccc1NC(=O)c1cccnc1	14
NS(=O)(=O)c1ccc(NC(=O)COc2ncnc3c2cnn3-c2ccccc2)cc1	12
CN1CCN(c2ccc(CNS(=O)(=O)Cc3ccc(Cl)cc3)cc2)CC1	16
O=C(CCCNC(=O)c1ccc(Cl)cc1)Nc1ccc(S(=O)(=O)Nc2ncccn2)cc1	19
CCOc1ccc(C(=O)Nc2cccc(NC(=O)c3cccs3)c2)cc1[N+](=O)[O-]	19
Cc1ccccc1Nc1c(-c2cccnc2)nc2ccc(Br)cn12	6
O=C(CN1CCN(c2ccc(O)cc2)CC1)Nc1cc(S(=O)(=O)N2CCCCC2)ccc1Cl	9
CCOc1ccccc1NC(=O)CNS(=O)(=O)c1ccc2nc(C)sc2c1	12
S=c1[nH]c2ccccc2c2ccccc12	9
O=C(Nc1ccc2c(c1)OCO2)c1sc2cc(Cl)ccc2c1Cl	25
COc1ccc2[nH]c(=O)c(CNc3ccc(C)cc3C)cc2c1	-7
COc1ccc(C(=O)NC(=S)NCc2cccnc2)cc1[N+](=O)[O-]	10
CCCc1c(C(=O)OCC)sc(N)c1C#N	-4
O=C(Nc1ccc(F)cc1)C1CCCN1S(=O)(=O)c1cccc2nsnc12 (configuration not stated)	24
CCC(C)(C(=O)NC1CCCC1)N(Cc1cccs1)C(=O)c1ccccn1 (configuration not stated)	21
CCOc1ccc(N2CC(O)=C(c3nc4ccccc4c(=O)[nH]3)C2=N)cc1	3
COc1cccc(C(=O)N(c2ccc(C)cc2)C2C=CS(=O)(=O)C2)c1 (configuration not stated)	11
CCN1CCN(c2nc(N(C)c3ccccc3)nc(N)c2[N+](=O)[O-])CC1	9
CC(C)c1ccc(NC(=O)N2CCCC2C(=O)Nc2ccc(-n3cnnn3)cc2)cc1 (configuration not stated)	-1
COc1ccc(Cl)cc1C(=O)O/N=C(\N)c1ccncc1	22
Cc1noc(-c2ccc(Cl)cc2)c1C(=O)O/N=C(\N)c1ccc(C(C)(C)C)cc1	15
COc1cc(/C=C/C(=O)OCC(=O)Nc2ccccc2Cl)cc(OC)c1OC	13
CC(Oc1ccc(Cl)cc1Cl)c1nc(-c2ccc(NC(=O)c3ccccn3)cc2)no1 (configuration not stated)	-9
CN(C[C@H](Cc1ccccc1)N(C[C@H](c1ccccc1)N(CCc1ccccc1)N=O)N=O)N=O	13
CCCCNC(=O)CCn1nc(-c2ccc(Cl)cc2)c2ccccc2c1=O	7
Cc1cc(C)c2ccc(/C=N/O)nc2c1O	27
CSc1ccc(/C=N/N2CCN(c3ccccc3)CC2)cc1	17
CC(C)C(=O)N1CCC2(CC1)Oc1ccc(F)cc1C(=O)C21CC(c2ccccc2)=NO1 (configuration not stated)	9
Cc1cccc2c1N1C(=O)c3c(C(=O)O)cccc3C1CC2C (configuration not stated)	17
Cc1[nH]nc2c1C(c1ccc(-c3ccc(Cl)cc3)o1)C(C#N)=C(N)O2 (configuration not stated)	10
O=C1c2ccccc2C(O)N1Cc1cccs1 (configuration not stated)	14

Looked up above.
CCOCCCNCC(O)c1ccccc1 (configuration not stated) – Biofilm kill mix = 7
O=C(Nc1ccc(F)cc1)C1CCCN1S(=O)(=O)c1cccc2nsnc12 (configuration not stated) – Biofilm kill mix = 24
O=C(Nc1ccc2c(c1)OCO2)c1sc2cc(Cl)ccc2c1Cl – Biofilm kill mix = 25
COc1cccc(C(=O)N(c2ccc(C)cc2)C2C=CS(=O)(=O)C2)c1 (configuration not stated) – Biofilm kill mix = 11

The results go on:
SMILES	Biofilm kill mix
Cc1ccc2cc(/C=N/Nc3nc4ccccc4[nH]3)c(Cl)nc2c1	7
Cc1cc(-c2csc3nc[nH]c(=S)c23)cc(C)c1C	13
CC(=O)Nc1cc(C)nn1-c1nc(C)cc(C)n1	-2
COc1ccc(-c2cc3c(nn2)-c2ccccc2C3=O)cc1	10
Cc1ccc(S(=O)(=O)N2CC=C(c3c(C)n(C)c4ccccc34)CC2)cc1	3
O=c1cnnc(Nc2ccccc2)[nH]1	1
CC(=O)NC1C(Oc2cccc(C)c2)OC2COC(c3ccco3)OC2C1O (configuration not stated)	6
Fc1ccccc1N1CCN(c2ncnc3nc[nH]c23)CC1	24
CC(=O)NC(=S)NNC(=O)C(c1ccccc1)c1ccccc1	15
C/C(=N\NC(=O)c1ccc(N/N=C(\C)c2ccncc2)cc1)c1ccncc1	5
Cc1cccc(NC(=O)C2CC(=O)OC23CCCC3)c1 (configuration not stated)	7
CCN(CC)CCCNC(=O)CNC(=S)N(CCCN1CCOCC1)Cc1cccs1	9
CC(=O)N(C1CC(C)C(C#N)(C#N)C1(C#N)C#N)N(C)C (configuration not stated)	12
CNCC(O)Cn1c(C(F)(F)F)nc2ccccc21 (configuration not stated)	7
Nc1ncnc(Nc2cc(Cl)cc(Cl)c2)c1[N+](=O)[O-]	12
CC(OC(=O)c1ccc(O)cc1)C(=O)Nc1cc(C(F)(F)F)ccc1Cl (configuration not stated)	17
CCN1CC(CN(C)Cc2nc(-c3ccc(C(F)(F)F)cc3)no2)CC1=O (configuration not stated)	18
Cc1ccc(S(=O)(=O)N2CCN(c3ccccn3)CC2)cc1	25
COc1ccc(NS(=O)(=O)c2cccc(C(=O)N/N=C/c3cccs3)c2)cc1	9
O=C(Nc1cccc(S(=O)(=O)N2CCOCC2)c1)c1c2c(nc3ccccc13)CCC2	9
O=C(CSCc1ccc([N+](=O)[O-])cc1)NC1CCCCCC1	18
CC(=O)c1cccc(NC(=O)Cn2c(=O)oc3cc(S(=O)(=O)N4CCCC4)ccc32)c1	30
COc1ccccc1Nc1nc(-c2c(C)[nH]c3ccccc23)cs1	13
NC(=O)CC(NC(=O)Cc1ccc(Br)cc1)c1ccc(NC2CCCC2)c([N+](=O)[O-])c1 (configuration not stated)	13

Two of these compounds, reformatted.
> NC(=O)CC(NC(=O)Cc1ccc(Br)cc1)c1ccc(NC2CCCC2)c([N+](=O)[O-])c1 (configuration not stated)
- Biofilm kill mix: 13

> O=C(CSCc1ccc([N+](=O)[O-])cc1)NC1CCCCCC1
- Biofilm kill mix: 18

Next results.
SMILES	Biofilm kill mix
CCOC(=O)C1=C(C)N(CC)C(=S)NC1c1ccc(Cl)cc1 (configuration not stated)	11
Cc1cc(C)c2cc(CN(Cc3ccco3)C(=S)NCC3CCCO3)c(=O)[nH]c2c1 (configuration not stated)	28
CCCC[n+]1c(-c2ccc(Cl)cc2Cl)csc1Nc1ccccc1	12
COc1ccccc1NC(=O)c1c(NC(=O)CCC(=O)O)sc2c1CCCCC2	15
Nc1nnc(CCCCCCCCCCc2nnc(N)s2)s1	25
CCOCCCNC(=O)CCSc1ccc(C)cc1	3
CCc1ccc(NC(=O)COc2ccc(F)cc2C(=O)c2cnn(-c3ccccc3)c2)cc1	13
CCOCCOC(=O)c1ccc(-n2cnc(C)n2)nc1	4
O=C(/C=C/c1cccs1)c1cc(Cl)ccc1O	17
CC1CCN(c2c(NCC3CCC(C(=O)Nc4ccccn4)CC3)c(=O)c2=O)CC1 (configuration not stated)	12
CCc1cc2c(SCC(=O)c3ccc(C)cc3)ncnc2s1	3
Cc1cc(C)nc(SCc2cn3cc(Cl)ccc3n2)n1	22
COc1ccc2[nH]c(C(=O)O)c(CCN3C(=O)c4cccc([N+](=O)[O-])c4C3=O)c2c1	15
CCN(CC)CCCN=Cc1c(O)n(-c2ccccc2C)c(=O)c2ccccc12	19
COc1ccc2nc(SCC(=O)Nc3nccs3)[nH]c2c1	6
CC1OC(OCC2OC(Oc3c(-c4ccc(O)cc4)oc4cc(O)cc(O)c4c3=O)C(O)C(O)C2O)C(O)C(O)C1O (configuration not stated)	22
CCOC(=O)c1c[nH]n(-c2ccc(C)cc2)c1=O	2
Cc1ccc(CNC(=O)Cn2c(=O)c3sccc3n(Cc3cccc([N+](=O)[O-])c3)c2=O)cc1	21
NC(=S)N/N=C\c1ccccc1OCc1ccccc1	15
O=C(O)c1cccc(S(=O)(=O)Nc2ccc([N+](=O)[O-])cc2O)c1	16
O=C(CN1CCOCC1)Nc1ccccc1Sc1ccc(Cl)cc1	22
Cc1nc2ccccc2c(=O)n1NC(=O)c1ccc([N+](=O)[O-])cc1Cl	8
COC(=O)c1c(NC(=O)C2C3C=CC(CC3)C2C(=O)O)sc(C)c1C (configuration not stated)	10
O=C(CSc1nc(C2CCCCC2)n(-c2ccccc2)n1)NCC(F)(F)F	13

Entries shown so far containing bromine (3):
SMILES	Biofilm kill mix
O=C(COC(=O)c1cc(=O)[nH]c2ccccc12)Nc1nc(-c2cccc(Br)c2)cs1	5
Cc1ccccc1Nc1c(-c2cccnc2)nc2ccc(Br)cn12	6
NC(=O)CC(NC(=O)Cc1ccc(Br)cc1)c1ccc(NC2CCCC2)c([N+](=O)[O-])c1 (configuration not stated)	13

Following part.
SMILES	Biofilm kill mix
CCOc1ccc(Br)cc1CSC(=N)N	7
O=C(N/N=C/c1cn(CCOc2ccccc2)c2ccccc12)c1ccncc1	5
NNc1nc2sc3c(c2c(=O)n1Cc1ccccc1)CCC3	18
Cc1cc(C)cc(N(C(=O)c2cc3ccccc3oc2=O)C2C=CS(=O)(=O)C2)c1 (configuration not stated)	9
Cc1ccc(/C=C/c2ccc(=O)n(Cc3ccc(F)cc3)n2)cc1	-16
COc1cc2nc(CSc3ncn[nH]3)[nH]c(=O)c2cc1OC	3
COc1ccc(NC(=O)Cn2c(-c3ccccc3)cc(C(C)=O)c2C)c(OC)c1	-1
CCOC(=O)c1sc(NC(=O)CSC(=S)N2CCN(C)CC2)nc1C	11
O=C(NCc1nnc(SCC(=O)N2CCOCC2)o1)c1ccccc1F	16
Cc1ccc(Cl)cc1N1CCN(C(=O)CCS(=O)(=O)c2cccc3nonc23)CC1	12
O=C(NNS(=O)(=O)c1ccc(Cl)cc1)c1cccs1	10
CC(=O)NCCc1nc2cc(NC(=O)c3ccccc3)ccc2n1C	17

Among those listed so far, 5 have a COOH group.
SMILES	Biofilm kill mix
Cc1cccc2c1N1C(=O)c3c(C(=O)O)cccc3C1CC2C (configuration not stated)	17
COc1ccccc1NC(=O)c1c(NC(=O)CCC(=O)O)sc2c1CCCCC2	15
COc1ccc2[nH]c(C(=O)O)c(CCN3C(=O)c4cccc([N+](=O)[O-])c4C3=O)c2c1	15
O=C(O)c1cccc(S(=O)(=O)Nc2ccc([N+](=O)[O-])cc2O)c1	16
COC(=O)c1c(NC(=O)C2C3C=CC(CC3)C2C(=O)O)sc(C)c1C (configuration not stated)	10

More structures
SMILES	Biofilm kill mix
O=C(COc1ccccc1[N+](=O)[O-])Nc1cccnc1	10
S=C(NCCc1ccccc1)N1CCCCC1	8
COc1cc(C(=O)NCCC(=O)N2CCN(C)CC2)cc(OC)c1OC	15
CN(CC1CCOCC1)C(=O)CC1C(=O)NCCN1CC1CCCCC1 (configuration not stated)	5
C[N+](C)=C1SCC(C)(/C=N/O)S1 (configuration not stated)	25
O=C(NCCNC1CCC(c2ccccc2)CC1)c1cccs1 (configuration not stated)	9
COc1ccc(/C=C/C(=O)c2ccncc2)c2ccccc12	5
CC(NS(=O)(=O)c1ccccc1)c1n[nH]c(=S)n1-c1ccccc1 (configuration not stated)	12
CCOC(=O)c1cn2ccc(C)cc2n1	18
Cn1cc(C(=O)N/N=C/c2ccc(Br)c([N+](=O)[O-])c2)c2ccccc21	9
COc1cccc2c1OCC/C2=N\NC(=O)C(C)Oc1ccc([N+](=O)[O-])cc1 (configuration not stated)	11
Cc1cc(NC(=O)CSc2nnc(C3COc4ccccc4O3)n2N)no1 (configuration not stated)	8
CC(=O)Nc1ccc(-c2csc(Nc3cc(C)ccn3)n2)cc1	15
Cc1n[nH]c(=S)n1/N=C/c1cccc(OCc2ccccc2)c1	14
COc1ccc(-n2c(C)cc(/C=C3/SC(=O)N(CC(=O)N4CCOCC4)C3=O)c2C)cc1	7
COc1ccc(C2/C=C\CN(CC(C)C)CC(=O)N2Cc2ccc(F)cc2)cc1 (configuration not stated)	18
CCOC(=O)N1CCN(S(=O)(=O)c2ccc(C(=O)Nc3nnc(C4CC4)o3)cc2)CC1	14
Cc1nnc(Sc2cc(C(=O)NC3CC3)c3ccccc3n2)s1	30
Cc1c(O)nc2sc3ccccc3n2c1=O	0
O=C1/C(=C/c2ccco2)SC(=S)N1C1CCS(=O)(=O)C1 (configuration not stated)	15
CCn1c(CNC(=O)Cc2ccc(OC)cc2)n[nH]c1=S	17

Screening data deposited in PubChem BioAssay by PCMD.

These rows are one share of the data; the hit share may differ from the screen's.
